MgrA-DNA mod – alters Staphylococcus aureus MgrA binding to DNA; fluorescence polarization; inhibition, %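 (about 10 µg/mL by stock and volumes)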; 84,000 compounds, 0.13% hits; AID 602314;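 active = above 50% in either of two replicates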;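 note: 0% = protein plus DNA without compound and 100% = DNA alone without protein; higher means less MgrA bound to DNA so lower polarization; one replicate is shown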
S aureus helic – blocks Staphylococcus aureus DNA helicase | purified S. aureus helicase, fluorescence unwinding assay; about half of the hits fall short of the stated cut | inhibition, %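 (tested at about 80 µM)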 | 120,000 compounds, 0.05% hits;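 active = both duplicates at 50% or more, or one of them with a favoured structure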;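 note: 0% = mean of negative control wells and 100% = mean of positive control wells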
* = called active by the depositor; · = not tested or not shown; & = joins results of further samples.

MgrA-DNA mod | S aureus helic | mol
2.8 | 5 | C=CCN1C(=O)C2(C(C#N)=C(N)Oc3c2c(=O)oc2ccccc32)c2ccccc21 (stereo not drawn)
2.3 | -1 | O=C(Oc1cccc2cccnc12)N1c2ccccc2Sc2ccccc21
1.1 | -5 | Cc1ccc(CSc2nc(N)cc(N)n2)cc1
· | -7 | COc1ccccc1C(=O)N(Cc1cccs1)C1CCS(=O)(=O)C1 (stereo not drawn)
· | -12 | COC(=O)C1C(c2ccc(Cl)cc2)C(C(=O)OC)S(=O)(=O)CS1(=O)=O (stereo not drawn)
-1.6 | 5 | CCC(=O)c1cn(CC(=O)NC2CCCCC2)c2ccccc12
0.9 | -5 | Cc1c(C(=O)NCCC(C)C)oc2ccc(S(=O)(=O)N3CCC4(CC3)OCCO4)cc12
0.1 | 12 | Cn1c(NN)nc2ccccc21
-0.6 | · | CC(=O)Nc1cscc1S(=O)(=O)c1ccccc1
-0.6 | · | CCN(C(=O)c1ccccc1)c1cccc2ccccc12
· | -9 | CCOC(=O)CN1C(=O)C2CC=C(Cl)CC2C1=O (stereo not drawn)
-3.6 | 17 | CC1CCc2c(C(=O)O)csc2C1 (stereo not drawn)
· | -10 | O=C(Nc1ccccc1)c1cnn(-c2ccccc2)c1C1CCNCC1
-0.7 | 5 | Cc1ccc(N=C2C(=O)Nc3ccccc32)c(C)c1
· | 12 | COc1ccc(CCN2C(=O)c3ccccc3C2(O)c2ncc[nH]2)cc1OC (stereo not drawn)
-7.2 | 7 | O=c1ccc2ccc(Oc3nc(-c4cccnc4)nc4ccccc34)cc2o1
1.1 | · | NC(=O)c1nnc2cc(-c3ccccc3)nn2c1N
· | -20 | O=C(NCCn1ccc2ccccc21)c1c(F)cccc1F
-0.9 | -1 | CC(C(=O)Nc1ccc2c(c1)OCCO2)n1nnc(-c2ccccc2)n1 (stereo not drawn)
1.6 | 9 | CC1CCCCN1C(=S)NC1CCCC1 (stereo not drawn)
· | 11 | COC(=O)c1cn(-c2ccccc2)nc1N
· | -11 | Cn1c(C(C#N)C(=O)CC23CC4CC(CC(C4)C2)C3)nc2ccccc21 (stereo not drawn)
· | -7 | Cc1sc2ncn(CC(=O)Nc3nc4ccccc4s3)c(=O)c2c1S(=O)(=O)N1CC(C)CC(C)C1 (stereo not drawn)
-0.2 | 12 | CCN(CC)C(=O)COc1cc(=O)n(CC)c2ccccc12
· | -15&9 | Cc1sc2nc[nH]c(=S)c2c1C
· | 6 | CSc1cccc(NC(=O)Cn2nc(SC)c(S(=O)(=O)c3ccccc3)c2N)c1
-2.5 | -14 | O=C(O)CCOc1ccccc1
· | -15 | Cc1[nH]nc(-c2ccc(O)cc2O)c1Oc1ccc(C(C)C)cc1
· | -1 | CC1C(=O)N2CCCc3cc(S(=O)(=O)NCc4ccc(F)cc4)cc1c32 (stereo not drawn)
· | -20 | Cc1ccc(S(=O)(=O)NNC2CS(=O)(=O)c3ccccc32)cc1 (stereo not drawn)
1.1 | 11 | N#C/C(C(=O)Nc1cc(C(F)(F)F)ccc1Cl)=C1\CCCN1
-0.7 | · | Cc1nnsc1-c1n[nH]c(=S)n1C1CC1
14 | 5 | Cc1ccc2cc(C#N)c(SCC(=O)NCc3ccco3)nc2c1
-1.8 | · | Cc1cc(C)cc(NC(=O)NCc2csc(-c3cccs3)n2)c1
· | 1 | CCCn1cc(/C=N/O)c(C)n1
-0.2 | · | COc1ccc(C2CC(=O)C3=C(C2)Nc2ccccc2NC3c2ccc(Br)s2)cc1 (stereo not drawn)
1.6 | 10 | O=C(O)c1cc(Cl)c(Cl)cc1C(=O)Nc1ccc(Oc2ccccc2)cc1
· | 10 | CC(C)NS(=O)(=O)c1ccc(OCC(=O)NCc2ccco2)cc1
0.5 | -11 | N#Cc1ccc(-c2cccnc2)n(CC(=O)N2CCOCC2)c1=O
0.8 | 8 | Cc1cc(=O)oc2cc(OC(=O)c3cc4ccccc4o3)ccc12
· | 8 | O=C(c1ccccc1)N1CCC(O)C2CCCCC21 (stereo not drawn)
-0.5 | · | Cc1nc(-c2ccc(S(=O)(=O)NCC3CC3)s2)cs1
· | 2 | CC1CCCCN1C(=O)COCc1cc(-c2ccc3c(c2)OCO3)on1 (stereo not drawn)
1.9 | 12 | O=C1Nc2ncccc2OC1c1ccccc1 (stereo not drawn)
6.3 | -1 | COC(=O)c1ccc(-c2c3c(nc4nc(N)[nH]c(=O)c24)-c2ccccc2C3=O)cc1
· | 7 | Cn1c(O)c(N=NC(=O)CCN2CCN(Cc3ccc4c(c3)OCO4)CC2)c2ccccc21
-1.9 | 5 | CCc1[nH]nc2c1C(c1cc(OC)c(OC(C)=O)c(OC)c1)C(C#N)=C(N)O2 (stereo not drawn)
4.0 | -15 | CCOC(=O)c1cc(-c2cccs2)nn1-c1ccc(C)cc1C
0.6 | 1 | c1coc(C2NCCS2)c1 (stereo not drawn)
3.6 | · | CSc1scc2c1-c1nn(C(=O)c3cccc(C(F)(F)F)c3)cc1CC2
6.1 | 4 | CCc1c(O)nc(SCC(=O)Nc2nnc(SCc3ccccc3)s2)[nH]c1=O
-2.7 | · | Cc1cc(Oc2ccc(N)cn2)cc(C)c1Cl
0.5 | 2 | FC(F)(F)c1ccc(NCc2ccco2)nc1
· | 2 | Cn1c(=NC(=O)C2Cc3ccccc3CN2C(=O)c2ccco2)sc2ccccc21 (stereo not drawn)
· | -11 | CN(C(=O)C(C)(C)Oc1ccc(Cl)cc1)c1ccccc1
-3.1 | · | O=S(=O)(c1ccccc1)N1CCN(c2ncnc3sccc23)CC1
· | 5 | COc1ccccc1COc1ncnc2c1cnn2-c1ccccc1
· | -18 | S=c1nc2c(n[nH]1)[nH]c1ccccc12
· | 10 | O=C(Cn1nnc(-c2cccc(C(F)(F)F)c2)n1)NC1CC1
-0.9 | 6 | CCS(=O)(=O)N1CCN(CC2CC=CCC2)CC1 (stereo not drawn)

(further entries)
MgrA-DNA mod | S aureus helic | mol
4.2 | -6 | Cn1c(CO)nc2cc(N=Cc3ccccc3O)ccc21
· | 4 | Cc1cc(C)nc(Nc2ccccc2Br)n1
1.9 | 6 | COC(=O)CNC(c1ccccc1)c1cc(Br)ccc1NC(=O)CCN1CCOCC1 (stereo not drawn)
-1.5 | · | CN1c2ccccc2C(=O)/C(=C\Nc2cc(C(F)(F)F)cc(C(F)(F)F)c2)S1(=O)=O
· | 1 | O=C(Nc1ccc(N2CCOCC2)cc1)c1ccc2c(=O)[nH][nH]c(=O)c2c1
-0.5 | 4 | Cc1ccc2c(C)nc(N/C(N)=N/S(=O)(=O)c3ccccc3)nc2c1
· | 0 | Cc1nc(SCCCCC#N)c2ccccc2n1
· | 23 | CCn1c(=O)[nH]c(=O)c2c(C(=O)OC)cc(-c3ccc(C)cc3)nc21
· | -4 | CCc1nnc(NC(=O)CCCn2c(=O)oc3ccccc32)s1
· | -20 | COc1ccc(CC(=O)NCCn2ccc3ccccc32)cc1
· | 6 | N#Cc1ccc(CSc2nncn2-c2ccccc2)cc1
· | 17 | CCN(CC)C(=S)SCc1cn2ccccc2n1
-0.7 | -3 | FC(F)(F)c1ccc(Cl)c(NC2=NCCC2)c1
12 | -2 | N#Cc1c(C(F)(F)F)cc(-c2ccccc2)[nH]c1=S
2.0 | 10 | COc1ccc(N2Cc3cccc(C(=O)Nc4cccc(OC)c4)c3C2=O)cc1
-1.5 | · | CC(=O)N1CCC(C(=O)NCc2c(-c3ccccc3)noc2C)CC1
· | 5 | Cc1noc(C)c1COc1ccc(CC(=O)NCCc2ccccn2)cc1
· | -6 | Brc1ccc(Oc2ncnc3c2oc2ccccc23)cc1
· | -2 | O=C(NCC(c1ccco1)N1CCCCC1)c1cc(C(F)(F)F)cc(C(F)(F)F)c1 (stereo not drawn)
0.5 | -5 | CCOc1c(CNCc2ccc3c(c2)OCO3)cccc1OC
· | -52 | Cn1c(N)nc(N)c(NC(=O)COc2ccc(Cl)cc2Br)c1=O
-1.6 | · | CS(=O)(=O)c1ccc([N+](=O)[O-])cc1
· | 44 | O=C1C2ON(c3ccccc3)C(c3ccncc3)C2C(=O)N1c1ccc(N2CCOCC2)cc1 (stereo not drawn)
· | -10 | Cc1ccc(C(C)C)c(OCC(=O)N=Nc2c(O)n(CN3CCOCC3)c3ccccc23)c1
1.9 | -6 | CC(C)NC(=S)N1CCN(Cc2c(Cl)cccc2Cl)CC1
· | -2 | O=C(O)c1ccc(Nc2ncnc3c2cnn3-c2ccccc2)cc1
0.2 | 10 | CCCCN(CC)Cc1ccc(CNC(=O)Nc2ccccc2)o1
· | -6 | C(=C1/CCCC2=C1Nc1ncnn1C2c1ccccc1)/c1ccccc1 (stereo not drawn)
1.6 | -1 | CCCc1ccc(CC2(CC(=O)OCC)C(=O)c3ccccc3C2=O)cc1
-1.2 | 8 | Cc1ccc(S(=O)(=O)N2CC(C)C(=O)CC2C)cc1 (stereo not drawn)
· | 4 | CC1(C)CC2(CC(C)(C)N1)OC(=O)N(C1CC1)C2(C)O (stereo not drawn)
0.1 | 8 | COC(=O)c1sc(NC(=S)Nc2ccn(C)n2)c(C(=O)OC)c1C
0.4 | -7 | CN(C(=O)COC(=O)c1ccc(Cl)c(N)c1)c1ccccc1
· | -7 | Cc1nnc(SC(C(=O)NC(N)=O)c2ccccc2)n1C1CCCCC1 (stereo not drawn)
· | 2 | CCN(CC)CC(=O)Nc1c(C#N)cnn1-c1ccccc1
· | 1 | COc1ccc(CCNC(=O)CCn2c(=O)sc3ccccc32)cc1OC
· | -6 | Fc1ccccc1Cc1nnc2n1N=C(c1ccc(Cl)cc1)CS2
-3.3 | · | CCOC(=O)c1cccc(O)c1O
· | 23 | O=C(Nc1ccc(Cl)cc1)Nc1cc(C(=O)NC2CC2)ccc1N1CC2CC(C1)c1cccc(=O)n1C2 (stereo not drawn)
0.9 | · | Cc1ccc(S(=O)(=O)NC2CC3CCC2(C)C3(C)C)cc1 (stereo not drawn)
· | 9 | C=CCn1c(C(O)c2ccccc2)nc2ccccc21 (stereo not drawn)
· | 40 | CCOCc1cnc(C)nc1NCC(=O)c1c(C)[nH]c2ccc(OC)cc12
· | -1 | CC(=O)N1CCN(c2ccc(Oc3ncnc4sccc34)cc2)CC1
· | -10 | CC(C)(O)C#Cc1ccc(C#N)cc1
-0.4 | 0 | CC1CCC(Nc2c(-c3cccc(Br)c3)nc3c(C#N)c[nH]n23)CC1 (stereo not drawn)
· | -21 | Cc1ccc(C)n1-c1ccc(C(=O)O)c(C(=O)O)c1
3.4 | · | C(=C\c1nc2ncnc(N3CCCCC3)c2[nH]1)/c1ccccc1
2.7 | 9 | COC(=O)c1ccc2c(c1)NC(=S)c1ccccc1S2
· | 37 | O=S(=O)(Nc1ccc2cn[nH]c2c1)c1ccccc1
-0.4 | 1 | Cc1nc2sccn2c(=O)c1S(=O)(=O)Nc1ccc(N2CCC(C)CC2)cc1
· | -16 | CN(C)c1cccc(C(=O)NCc2ccccc2)c1
· | 38 | CN(c1nnc(NC(=O)NCc2ccc(F)cc2)s1)C1CCCCC1
· | -6 | N#Cc1ccccc1OCC(=O)Nc1ccc2c(c1)OCCCO2
-1.1 | 6 | C=CCn1c(CNC(=O)c2ccc(OC)c(OC)c2)nnc1SCC(=O)Nc1nc(C)cs1
-3.7 | · | COC(=O)CCC(=O)c1oc2ccccc2c1N
-2.0 | · | CCOC(=O)c1n[nH]n(-c2ccc(Cl)cc2)c1=O
-2.5 | · | O=c1o[nH]c(-c2ccccc2)c1N=Nc1c(F)cccc1Cl
1.4 | 7 | CC1CCN(C(=O)c2cc(Cl)ccc2Cl)CC1
1.4 | 23 | COc1ccc(CCNC(=O)c2ccccc2N)cc1
-0.2 | 21 | Cc1ccc(C2=NNC(=O)C(c3cn(CCC#N)c4ccccc34)C2)cc1 (stereo not drawn)

Gathered by group: those above with a COOH group
MgrA-DNA mod | S aureus helic | mol
-3.6 | 17 | CC1CCc2c(C(=O)O)csc2C1 (stereo not drawn)
-2.5 | -14 | O=C(O)CCOc1ccccc1
1.6 | 10 | O=C(O)c1cc(Cl)c(Cl)cc1C(=O)Nc1ccc(Oc2ccccc2)cc1
· | -2 | O=C(O)c1ccc(Nc2ncnc3c2cnn3-c2ccccc2)cc1
· | -21 | Cc1ccc(C)n1-c1ccc(C(=O)O)c(C(=O)O)c1

Next structures:
MgrA-DNA mod | S aureus helic | mol
0.3 | · | Clc1ccc(I)cc1Cl
· | -5 | COc1ccc2oc(C(=O)NCCNc3ncc(C(F)(F)F)cc3Cl)c(C)c2c1
· | 26 | CN1CCN(CCCNC(=O)c2ccc3c(c2)N(Cc2ccc(F)cc2)CCS3)CC1
· | 4 | CCN(c1ccccc1)S(=O)(=O)c1ccc(-c2n[nH]c(C)c2C)s1
0.1 | -5 | CC(C)C(=O)Nc1ccc2oc(=O)ccc2c1
1.0 | 10 | Cc1cccc(CSCc2nnc(NC(=O)/C=C/c3ccccc3)s2)c1
-4.2 | 6 | FC(F)(F)C(Oc1nc(N2CCCCC2)nc(N2CCCCC2)n1)C(F)(F)F
2.4 | 27 | Cc1cnc(-c2ccc(Br)cc2)nc1
· | 7 | CC(Nc1ccc(Br)cc1)C(=O)NC(=O)NC1CCCCC1 (stereo not drawn)
-5.0 | 7 | CN(CC12CC3CC(CC(C3)C1)C2)C(=O)c1ccco1
14 | 9 | CC(C)c1ccc(/C=C/C(=O)NC(=S)Nc2ccc(C(=O)O)cc2)cc1

Of the compounds above, these contain an aryl thioether with sulfur outside any ring.
MgrA-DNA mod | S aureus helic | mol
1.1 | -5 | Cc1ccc(CSc2nc(N)cc(N)n2)cc1
· | 6 | CSc1cccc(NC(=O)Cn2nc(SC)c(S(=O)(=O)c3ccccc3)c2N)c1
14 | 5 | Cc1ccc2cc(C#N)c(SCC(=O)NCc3ccco3)nc2c1
3.6 | · | CSc1scc2c1-c1nn(C(=O)c3cccc(C(F)(F)F)c3)cc1CC2
6.1 | 4 | CCc1c(O)nc(SCC(=O)Nc2nnc(SCc3ccccc3)s2)[nH]c1=O
· | 0 | Cc1nc(SCCCCC#N)c2ccccc2n1
· | 6 | N#Cc1ccc(CSc2nncn2-c2ccccc2)cc1
· | -7 | Cc1nnc(SC(C(=O)NC(N)=O)c2ccccc2)n1C1CCCCC1 (stereo not drawn)
-1.1 | 6 | C=CCn1c(CNC(=O)c2ccc(OC)c(OC)c2)nnc1SCC(=O)Nc1nc(C)cs1

Compound activity as filed in PubChem.

Not all compounds are listed, so the mix of outcomes need not match the whole.
